# High-throughput results from PubChem.
# UCH37 DUB inh: human UCH37 deubiquitinating enzyme inhibition; inhibition, % (concentration not given with the values); Q9Y5K5; purified proteasome/UCH37, Ub-AMC cleavage fluorescence; 330,000 tested, 0.33% active;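 active means mean of two replicates above 20%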;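 further: 0% = compound-free wells with enzyme and 100% = wells lacking proteasome; stock transfer was 100 nL into about 20 µL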
# Target sequence (Q9Y5K5 whole entry, looked up): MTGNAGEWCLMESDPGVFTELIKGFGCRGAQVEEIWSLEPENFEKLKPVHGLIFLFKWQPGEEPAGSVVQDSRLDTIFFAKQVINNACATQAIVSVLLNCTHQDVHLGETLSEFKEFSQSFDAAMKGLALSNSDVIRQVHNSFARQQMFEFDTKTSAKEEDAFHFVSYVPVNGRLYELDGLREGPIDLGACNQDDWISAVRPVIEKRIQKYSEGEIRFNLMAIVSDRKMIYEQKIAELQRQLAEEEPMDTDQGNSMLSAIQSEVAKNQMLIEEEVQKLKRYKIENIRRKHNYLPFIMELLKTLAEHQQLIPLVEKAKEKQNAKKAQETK
#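 Reagent: Ub-AMC substrate; assay system: Proteasome-associated human UCH37 deubiquitinase; controls: no-proteasome and no-compound wells; read-out: % inhibition of Ub-AMC cleavage fluorescence; timing: 30 min preincubation with enzyme, 25 min cleavage at room temperature; signal: AMC fluorescence from Ub-AMC cleavage, excitation 355 nm, emission 460 nm; buffer or medium: Tris-HCl pH 7.4 plus ovalbumin, ATP-MgCl2, DTT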
# ALR inh: blocks human ALR sulfhydryl oxidase activity | P55789 | inhibition, % (test concentration not listed) | purified ALR, DTT oxidation, H2O2 HRP-luminol luminescence | AID 485317 | 290,000 tested, 3.8% active;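 active means mean and each replicate at 75% or more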;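 further: stock transfer was 7.5 nL into about 7.5 µL; 0% = neutral wells and 100% = wells with inactivated enzyme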
# Target sequence (P55789 whole entry, looked up): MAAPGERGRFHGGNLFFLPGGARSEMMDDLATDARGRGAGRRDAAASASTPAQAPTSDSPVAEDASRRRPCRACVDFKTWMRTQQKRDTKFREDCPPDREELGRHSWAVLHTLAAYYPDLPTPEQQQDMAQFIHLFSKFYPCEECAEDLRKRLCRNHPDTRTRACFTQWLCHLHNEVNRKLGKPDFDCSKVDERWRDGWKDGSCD
# B2AR ag: human beta-2 adrenergic receptor agonism by FAP; AID 504454; 340,000 tested, 0.43% active; response, % (test concentration not listed); Am2.2-beta2AR cells, FAP receptor internalization, flow cytometry; reference of the scale not given here; P07550;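 active means response above a set limit, near 3 SD of response in nonfluorescent compounds, cut at about 42% in these data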;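 further: stock transfer was 100 nL into about 11 µL; a reference agonist was the positive control; negative values mostly stem from fluorescent compounds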
# LANA-H2A inh: blocks KSHV LANA binding to histone H2A/H2B | AID 2629 | Q9QR71 | inhibition, % (test concentration not listed) | cell-free LANA-H2A/H2B peptide, fluorescence polarization | 320,000 tested, 0.6% active; in the data active means inhibition mostly above about 10%, no sharp cut-off; inactive means mostly below about 6.7%;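 further: stock transfer was 7.5 nL into about 10 µL; 0% = median of vehicle wells and 100% = median of positive control wells; one replicate is shown; the record names a cut of 25% in any replicate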
# HNF4A DNA FP: change in binding of human HNF4 alpha to DNA. HNF4a-FITC DNA binding, fluorescence polarization, 1 h. AID 1224865. activity change, % at 10 µM. 360,000 tested, 0.3% active. P41235; in the data active means activity change above about 30%, passing the limit was not always enough;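 further: controls were the assay level and a saturating level of protein; the project sought stronger binding though the title names inhibitors; some compounds called inactive have numbers as strong as hits; positive values seem to mean higher polarization but the record does not say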
# Target sequence (P41235 whole entry, looked up): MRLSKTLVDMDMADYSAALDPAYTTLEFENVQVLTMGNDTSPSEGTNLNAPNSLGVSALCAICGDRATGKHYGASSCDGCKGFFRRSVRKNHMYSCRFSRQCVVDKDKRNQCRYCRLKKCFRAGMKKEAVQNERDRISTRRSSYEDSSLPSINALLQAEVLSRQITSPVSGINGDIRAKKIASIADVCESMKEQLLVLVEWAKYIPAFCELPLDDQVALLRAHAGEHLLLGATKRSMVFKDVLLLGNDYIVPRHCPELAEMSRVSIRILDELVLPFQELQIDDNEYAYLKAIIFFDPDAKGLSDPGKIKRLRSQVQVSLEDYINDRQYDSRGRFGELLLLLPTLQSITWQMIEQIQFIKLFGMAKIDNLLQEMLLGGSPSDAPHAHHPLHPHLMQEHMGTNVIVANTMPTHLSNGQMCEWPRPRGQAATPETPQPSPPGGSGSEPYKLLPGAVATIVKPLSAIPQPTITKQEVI
# FGF22 binding: binders of recombinant human FGF22 by thermal shift; AID 651658; Q9HCT0; 340,000 tested, 1.5% active; SYPRO orange fluorescence; percent of sucrose octasulfate shift, DMSO zero; calls only at 9.99 µM;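 active means melting point raised past a set limit in the mean and every replicate; three in four hits are not shown here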
# Ecoli growth: E. coli growth inhibition; 330,000 tested, 0.21% active; OD600 absorbance (test concentration not listed); Escherichia coli growth, OD600, 23 h; hits give low values;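 active means OD600 absorbance below the run mean of sample wells minus 3.6 SD, in any replicate, cut at about 0.56 in these data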;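 further: stock transfer was 300 nL into about 60 µL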
# Numbers without * were called inactive; i = inactive; / = not tested or not shown; & = joins results of further samples. The list is partial. The share of hits here may be higher or lower than overall.
# The first two entries as a preview:
mol,UCH37 DUB inh,ALR inh,B2AR ag,LANA-H2A inh,HNF4A DNA FP,FGF22 binding,Ecoli growth
COC(=O)c1ccc(C(=O)OC)c(NC(=O)c2cnc3n(c2=O)CCS3)c1,-155,-2,-3,-1.3,1.1,i,0.73
Cc1ccc(NS(=O)(=O)c2ccc3[nH]c(=O)oc3c2)cc1Cl,-0.4,3,6,4.0,-3.5,i,0.65

# The whole of this part, from the first entry:
mol,UCH37 DUB inh,ALR inh,B2AR ag,LANA-H2A inh,HNF4A DNA FP,FGF22 binding,Ecoli growth
COC(=O)c1ccc(C(=O)OC)c(NC(=O)c2cnc3n(c2=O)CCS3)c1,-155,-2,-3,-1.3,1.1,i,0.73
Cc1ccc(NS(=O)(=O)c2ccc3[nH]c(=O)oc3c2)cc1Cl,-0.4,3,6,4.0,-3.5,i,0.65
Cc1ccccc1NC(=O)OCc1cccnc1Oc1ccc(Cl)cc1,2.8,-1,-3,4.2,-1.3,i,0.63
CCOc1ccccc1C(=O)N[C@H](C(=O)OCc1csc(CC(=O)Nc2ccc(C)cc2)n1)C(C)C,0.1,-5,-3,3.3,2.0,i,0.69
Cc1cccc(OCCNC(=O)CSc2ccc(C(F)(F)F)cc2[N+](=O)[O-])c1,0.2,32,-2,2.7,-1.1,/,0.65
CCSc1cc(C)nc2c(-c3ccccc3)c(C)nn12,-30,-2,6,-0.8,-2.6,/,0.66
COC(=O)c1sccc1NC(=O)c1ccc(C#N)cc1,3.5,0,12,-3.4,3.0,/,0.68
COc1cccc(CN2CCNC(=O)C2CC(=O)NCCn2cccn2)c1OC (stereo unspecified),-1.0,-51,1,-1.5,-1.7,i,0.7
Cc1c(C(=O)N2CCCC2)oc2c1-c1nn(CC(=O)NCCCN3CCCCC3C)cc1CC2 (stereo unspecified),-0.6,-123,-12,-4.4,11,i,0.7
Cc1c(NC(=O)c2ccccc2N)cccc1C(=O)O,-9.7,-9,-2,-1.4,2.7,/,0.7
COc1cc(-c2noc(CCCC(=O)NCc3ccco3)n2)cc(OC)c1OC,3.8,-10,-6,0.2,-1.6,/,0.69
COCCSc1nnc(NC(=O)c2ccco2)s1,6.8,-7,5,5.8,1.7,i,0.61
CC(C)c1ccc(NC(=O)CCCN2C(=O)NC(C)(C)C2=O)cc1,1.7,0,0,-0.5,4.8,i,0.67
COc1cccc(C(=O)Nc2nc(-c3ccc4c(c3)OCO4)cs2)c1,-2.7,50,17,16,1.5,i,0.75
O=C1CNC(=S)N1c1nc(-c2ccccc2)cs1,-11,-3,-5,1.3,4.4,i,0.72
Cn1c(=O)[nH]c(=O)c2c1nc(Sc1nc3ccccc3s1)n2Cc1ccccc1,1.8,-18,-14,0.9,2.0,/,0.71
Nc1cc(=O)[nH]c(SCC(=O)N2CCCC2)n1,-1.8,-2,2,-1.7,-3.0,i,0.72
NNC(=O)c1nnsc1-c1csnn1,/,/,-7,/,-2.4,i,/
CCC(C)NC(=O)CNC(=S)N(Cc1ccccc1F)C1CCCCC1 (stereo unspecified),3.7,-1,-6,0.9,-2.6,i,0.7
O=C(COc1ccc(Cl)cc1)N1CCCCCCC1,-0.7,-2,-2,-2.0,1.7,i,0.69
Cc1ccc(S(=O)(=O)NCc2ccccc2)cc1C(=O)N(C)Cc1ccccc1F,1.6,1,-1,0.3,-0.8,i,0.69
CC(C)(C)S(=O)N1Cc2cc(=O)n(Cc3ccccc3)c(CCO)c2[C@@H]1CCO (stereo partly specified),/,/,-2,/,1.9,i,/
Cc1cccc(NC(=S)NCCc2ccccc2)n1,-1.6,-8,-5,-3.5,5.4,i,0.71
NC(=O)Cc1ccc(C(=O)c2ccccc2F)s1,0.6,-1,-6,0.8,-3.1,i,0.63
Cc1cc2oc(=O)cc(CN(C)Cc3ccc(OC(F)F)cc3)c2cc1Cl,4.3,-2,-3,5.8,0.4,i,0.68
COC(=O)c1ccc(N2CC3CNC(=O)C2(C(=O)OC)N3C)cc1 (stereo unspecified),0.7&3.1,-1&0,-4&-5,2.2&3.1,-1.6&-2.2,i,0.67&0.79
COc1cc(/C=C(/C#N)c2nc3ccccc3[nH]2)ccc1Oc1ncccc1[N+](=O)[O-],0.1,-6,-3,3.0,4.3,/,0.71
O=C(NCc1ccccc1)c1ccc(CS(=O)(=O)Cc2ccccc2F)o1,0.7,/,-8,-9.7,1.8,i,0.69
CC1=C(/C=C/C(C)=C/C=C/C(C)=C/CO)C(C)(C)CCC1,78*,-5,-2,4.4,-2.1,i,0.69
CCOC(=O)c1c(NC(=O)C2c3ccccc3Oc3ccccc32)sc(C(N)=O)c1C,4.1,-6,17,0.4,0.3,/,0.74
CCN(C(=O)COc1ccc(C(=O)c2ccccc2)cc1)c1ccccc1,1.5,0,-8,-0.9,-0.5,i,0.67
O=S(=O)(Nc1ccc(-n2cccc2)cc1)c1ccc(Cl)c(Cl)c1,5.3,0,-240,1.1,1.1,i,0.62
CC(C)Nc1nc(N)c(C(=O)C23CC4CC(CC(C4)C2)C3)s1,4.8,61,10,-20,3.5,i,0.67
Cc1ccc(NC(=O)CCC(=O)OC(C)C(=O)c2ccccc2)cc1 (stereo unspecified),0.1,-11,3,-1.5,0.0,i,0.64
CCOC(=O)C1=C(C)NC(=O)C(C(N)=O)C12CCCC2 (stereo unspecified),-0.2,2,4,3.9,0.6,/,0.65
CCOC(=O)/C=c1\sc2n(c1=O)CCN=2,/,3,-1,3.7,1.1,/,/
Cc1cccc(N=C2NC(=O)c3cc([N+](=O)[O-])ccc32)c1,5.1,3,-6,3.9,-0.3,i,0.69
CC(C)NC(=O)CCNC(=O)c1ccc(F)cc1,6.5,2,12,4.9,1.8,i,0.72
CCOC(=O)N1CCN(C(=O)C2CCN(S(=O)(=O)c3ccccc3)CC2)CC1,2.3,-22,-6,5.1,-0.7,/,0.72
Cc1ccc(NC(=O)CN(C)C(=O)CCOc2cccc(C)c2)cc1,2.9,-5,4,5.4,-3.4,/,0.73
O=C(CN1C(=O)c2cccnc2Oc2ccc(Cl)cc21)NC1CCCC1,1.8,9,1,-7.7,0.1,i,0.65
c1csc(C(c2nnnn2C2CCCCC2)N2CCCC3(CCCCC3)C2)c1 (stereo unspecified),3.4,-4,30,-4.4,2.8,/,0.74
COC(=O)c1ccccc1NC(=O)c1ccc(COc2cccc3ccccc23)o1,-7.8,-37,-5,2.4,3.0,/,0.75
COc1ccccc1OCC(=O)Nc1c2c(nn1-c1ccc(C)cc1)CS(=O)(=O)C2,2.2,-7,-3,0.4,0.6,i,0.65
CCN1CCN(c2ccc(S(=O)(=O)N3CCOCC3)cc2NC(=O)C(C)Oc2cccc(Cl)c2)CC1 (stereo unspecified),1.8,-5,12,1.2,-1.1,i,0.6
CCCC(C(=O)NC1CCCC1)N(CC1CCCO1)C(=O)c1snc(C(N)=O)c1N (stereo unspecified),-45,-2,4,-0.5,3.9,/,0.7
O=C(CNC(=O)c1ccc(Br)o1)NCc1ccccc1,-0.4,-3,-1,-11,-3.8,i,0.67
CCNC(=O)OCC(CC)NC(=O)OCC(C)C (stereo unspecified),-1.8,/,6,-0.6,-1.6,/,0.72
COc1cc(C2C3=C(CCCC3=O)Nc3[nH]n(-c4ccccc4)c(=O)c32)ccc1O (stereo unspecified),15,100*,-2,2.1,0.7,/,0.73
Cc1ccc(C(=O)NNC(=O)CSc2nnc(-c3ccncc3)n2C)cc1,3.3,-2,-2,0.8,2.2,/,0.71
O=C(NNC(=O)c1ccccc1F)c1ccc(S(=O)(=O)N2CCCCC2)cc1,-0.5,4,1,2.3,-2.5,i,0.67
O=C(NC1CCCN(C2Cc3ccccc3C2)C1)c1ccc(F)cc1Cl (stereo unspecified),-0.4,-8,-1,1.2,2.9,i,0.63
CCOC(=O)c1c(C)nc(C)c(C(=O)OCC)c1-c1cccnc1,0.4,-18,-3,-2.5,-3.7,i,0.66
CC(=O)c1cccc(NC(=O)CCS(=O)(=O)c2ccc(Br)s2)c1,2.6,-4,-8,-0.2,-2.4,i,0.7
Cc1nnc(NC(=O)c2cccc(S(=O)(=O)N3CCCC3)c2)s1,5.6,0,0,-4.2,0.2,i,0.71
CCNC(=O)/C=C1\NC(C)(C)Cc2c1ccc1ccccc21,-13,/,-5,-4.7,-2.2,i,0.66
O=C(CN1CCOCC1)Nc1ccc(Cl)c(Cl)c1,/,2,-5,2.0,-2.0,/,/
O=C(NCCCc1ccccc1)Nc1cccc(Cl)c1,4.9,-2,-5,0.2,-3.1,i,0.53
O=C(NCc1ccc(F)cc1)C1CC(=O)N(C2CCCCCCC2)C1 (stereo unspecified),1.7,-10,-6,-0.5,2.0,i,0.7
NC(=O)c1cc(S(=O)(=O)N2CCCC2)ccc1OCCOc1ccccc1,-2.6,-4,-1,-10,3.5,i,0.66

# The list continues:
mol,UCH37 DUB inh,ALR inh,B2AR ag,LANA-H2A inh,HNF4A DNA FP,FGF22 binding,Ecoli growth
O=C(Nc1ccc2c(c1)OCCO2)c1ccc(Cl)cc1,1.8,-9,12,5.7,-1.6,i,0.66
CC1CCCN(CC(=O)Nc2cccc([N+](=O)[O-])c2)C1 (stereo unspecified),-0.7,-5,-1,2.0,0.8,i,0.69
COc1ccc(Cl)c(N2CCN(CCCNC(=O)Nc3ccc(C)cc3)CC2)c1,3.8,1,10,-4.8,1.8,/,0.66
O=C(CCCn1nnc(-c2cccnc2)n1)c1ccc(F)cc1,2.2,-3,-4,4.0,1.5,i,0.68
COC(=O)/C(C(C)=O)=C(\C=C\N(C)C)N(C)C,6.9,-5,0,5.7,-0.2,i,0.67
CCOC(=O)C1=C(CN2CCSCC2)NC(=O)NC1c1ccc2c(c1)OCO2 (stereo unspecified),2.7,-4,-11,-1.8,-1.8,i,0.68
OCCNCCOc1ccccc1-c1ccccc1,0.2,-1,2,1.5,-0.7,/,0.67
CCN1CCN(CC(O)COc2ccc3c(c2)CCC3)CC1 (stereo unspecified),1.8,-2,5,0.0,-1.0,i,0.7
Cc1cc2cc(CNC(=O)COc3ccccc3)ccc2n1C,6.3,-11,-11,0.2,-5.7,i,0.71
CSCCC(NC(=O)c1ccccc1Br)C(=O)NC(C)CCc1ccccc1 (stereo unspecified),1.8,-1,-9,-0.6,-0.8,i,0.68
Cc1cc(C)nc(-n2nc(C)c3c(C(F)F)cc(C)nc32)n1,3.2,-2,-10,1.9,-0.8,/,0.71
CCOC(=O)c1ccc(CNC(=O)c2cc(COc3ccccc3SC)on2)o1,1.9,-5,-5,-1.0,0.5,i,0.71
COCCn1c(SCCN2CCOCC2)nc2c1c(=O)[nH]c(=O)n2C,1.7,/,-3,4.3,0.2,i,0.69
COc1cc(C(=O)N2CC(C)OC(C)C2)c([N+](=O)[O-])cc1OC (stereo unspecified),5.3,-1,-5,-0.4,-2.4,i,0.68
CCOc1ccc(-n2ccnc(SCC(=O)Nc3ccc(OC)cc3OC)c2=O)cc1,-35,/,1,/,2.6,i,0.66
COc1cccc(-c2nc(S(=O)(=O)c3ccccc3)c(N3CCOCC3)o2)c1,1.2,3,6,5.4,2.0,i,0.69
CSc1cccc(NC(=O)/C=C/c2ccco2)c1,0.4,-83,6,3.6,2.3,i,0.7
Cc1ccc(C(=O)N(Cc2sccc2C)C2CCS(=O)(=O)C2)cc1 (stereo unspecified),2.6,-4,9,-5.0,-0.4,i,0.69
Cc1cc(C)n(C(=O)c2ccc(NC(=O)C3CC3)cc2)n1,3.3,-21,-3,3.4,2.9,i,0.66
Cc1cc2c(cc1C)N(C(=O)CCl)CCN2C(=O)CCl,1.8,/,18,/,-0.1,i,0.64
